High-throughput results deposited in PubChem by National Center for Advancing Translational Sciences (NCATS).
Methyltransferases: Primary Screen for Target Class Profiling of Small Molecule Inhibitors of Methyltransferases | AID 1745853, 2022 | hit rate 3.9% among 25,000 | purified enzyme, MTase-Glo SAH luminescence; hits give low values | calls only at 40 µM; active = -50% or lower on at least one of six enzymes; inconclusive = the cases between; inactive = as a rule above -30% on all six;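 further: enzymes were COMT GAMT GNMT HNMT NNMT and PNMT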
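Each enzyme was assayed with SAM and its substrate. SAH formation detected by MTase-Glo luminescence; single-point 40 uM screen[…].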
Calls only; i = inactive; u = inconclusive; + = active, no number. On the % scale 0 is the no-effect control and ±100 the full control effect. These rows are one share of the data; count on the stated rates, not on these rows.

Sample of the layout, 3 compounds:
SMILES	Methyltransferases
CN(CCc1ccccn1)C[C@H]1CN2CC[C@H]1C[C@@H]2CNC(=O)Nc1ccsc1	+
CCOC(=O)CNC(=O)N1Cc2ccccc2-n2cccc2C1CC (centres undefined)	i
N#Cc1ccc([C@H]2CCCC[C@H]2O)cc1C(F)(F)F	i

Results, previewed entries included:
SMILES	Methyltransferases
CN(CCc1ccccn1)C[C@H]1CN2CC[C@H]1C[C@@H]2CNC(=O)Nc1ccsc1	+
CCOC(=O)CNC(=O)N1Cc2ccccc2-n2cccc2C1CC (centres undefined)	i
N#Cc1ccc([C@H]2CCCC[C@H]2O)cc1C(F)(F)F	i
CN(CC[C@H](N)CC(=O)N[C@H]1C=C[C@@H](n2ccc(N)nc2=O)O[C@@H]1C(=O)O)C(=N)N	i
CCOC(=O)Cc1ccc(NC(=O)N2Cc3ccccc3-n3cccc3C2c2ccc(CC)cc2)cc1 (centres undefined)	i
NC(CCP(=O)(O)O)C(=O)O (centres undefined)	i
CC[C@H]1CN2CC[C@H]1C[C@@H]2CN(Cc1cccs1)Cc1cccs1	u
Cc1ccccc1NC(=O)N1Cc2ccccc2-n2cccc2C1c1ccc(F)cc1 (centres undefined)	i
CCC1c2cccn2-c2ccccc2CN1C(=O)Nc1cc(Cl)ccc1C(=O)OC (centres undefined)	i
COC[C@@H]1OC(=O)/C(=C\N(C)CCCN(C)C)C2=C(O)C(=O)C3=C([C@@H](OC(C)=O)C[C@@]4(C)[C@@H]3CC[C@@H]4O)[C@@]21C	u

Molecules listed so far that contain four or more nitrogen atoms:
SMILES	Methyltransferases
CN(CCc1ccccn1)C[C@H]1CN2CC[C@H]1C[C@@H]2CNC(=O)Nc1ccsc1	+
CN(CC[C@H](N)CC(=O)N[C@H]1C=C[C@@H](n2ccc(N)nc2=O)O[C@@H]1C(=O)O)C(=N)N	i

The listing continues:
SMILES	Methyltransferases
CCCNC(=O)N1Cc2ccccc2-n2cccc2C1c1ccccc1 (centres undefined)	i
COc1ccc(NC(=O)N2Cc3ccccc3-n3cccc3C2c2ccc(C)cc2)cc1 (centres undefined)	i
O=C(NCc1ccc(F)cc1)N1Cc2ccccc2-n2cccc2C1c1ccc(F)cc1 (centres undefined)	i
CCC1c2cccn2-c2ccccc2CN1C(=O)Nc1ccccc1F (centres undefined)	i
Cc1cc(C)cc(NC(=O)N2Cc3ccccc3-n3cccc3C2c2cccs2)c1 (centres undefined)	i
Cc1ccccc1C1c2cccn2-c2ccccc2CN1C(=O)Nc1ccc(Cl)cc1 (centres undefined)	i
c1ccc(C2CC2)c(OCC2=NCCN2)c1	i
Cc1cc(C(=O)CN2CCCC2)c(C)n1-c1ccc(F)cc1	i
Cc1nc(-c2ccccc2)cc([C@H]2CN3CC[C@H]2C[C@@H]3CNS(C)(=O)=O)n1	i
CN1C(=O)c2ccccc2NC(=O)C1Cc1ccccc1 (centres undefined)	i
Cc1ccc(C2c3cccn3-c3ccccc3CN2C(=O)Nc2ccc3c(c2)OCCO3)cc1 (centres undefined)	i
O=c1[nH]c2ccc(Cl)cc2c(N[C@@H]2CN3CCC2CC3)c1-c1nc2ccccc2[nH]1	u
C[N@@+]1(CC2CC2)CC[C@]23c4c5ccc(O)c4O[C@H]2C(=O)CC[C@@]3(O)[C@H]1C5	u
CCOc1ccccc1NC(=O)N1Cc2ccccc2-n2cccc2C1c1cccc(Cl)c1 (centres undefined)	i
C=C(C)[C@H]1O[C@H]2CC[C@@]3(C)[C@@](O)(CC[C@H]4[C@@H]5OC(C)(C)[C@H]6C[C@@H]7C(=C)Cc8c(Cl)cc9[nH]c(c5c9c8[C@@]76O)[C@@]43C)[C@]23O[C@@H]3[C@H]1O	i
CCCC[N+]1(C)[C@@H]2CC(OC(=O)[C@H](CO)c3ccccc3)C[C@H]1[C@@H]1O[C@@H]12 (some centres undefined)	i
Cc1sc2c(c1C)C(c1ccc(Cl)cc1)=N[C@@H](CC(=O)Nc1ccc(O)cc1)c1nnc(C)n1-2	u
Cc1ccc(NC(=O)N2Cc3ccccc3-n3cccc3C2c2ccccc2C)c(C)c1 (centres undefined)	i
Cc1cccc(NC(=O)N2Cc3ccccc3-n3cccc3C2c2cccs2)c1C (centres undefined)	i
CCOc1ccc(C2c3cccn3-c3ccccc3CN2C(=O)NCCc2ccccc2)cc1 (centres undefined)	i
Fc1cc(F)c2c(c1)[C@H]1C=CC[C@H]1C(c1cccnc1)N2 (some centres undefined)	u
CCCNC(=O)N1Cc2ccccc2-n2cccc2C1c1cccs1 (centres undefined)	i
COc1ccc(C2c3cccn3-c3ccccc3CN2C(=O)NCCc2ccccc2)cc1 (centres undefined)	i
C=CCN1CC[C@]23c4c5ccc(O)c4O[C@H]2[C@@H](O)CC[C@@]3(O)[C@H]1C5	i
N#CC(C#N)=Cc1ccc(O)c(O)c1	u
NC(=O)CN1C(=O)CO[C@H]2CN(Cc3ccccn3)C[C@H]21	i
C=C1CC[C@H]2[C@@H](/C=C(\C)C(=O)[C@@]3(OC(C)=O)C[C@H](C)[C@H](OC(=O)c4ccccc4)[C@@H]3[C@H]1OC(C)=O)C2(C)C	i
CCCN(CCC)C1CCc2ccc(O)cc2C1 (centres undefined)	+
CCOc1ccc(C2c3cccn3-c3ccccc3CN2C(=O)Nc2ccccc2OC)cc1 (centres undefined)	i
CCOC(=O)c1ccccc1NC(=O)N1Cc2ccccc2-n2cccc2C1c1cccc(Cl)c1 (centres undefined)	i
C[C@@H]1CCC/C=C/[C@H]2C[C@@H](O)C[C@@H]2[C@@H](O)/C=C/C(=O)O1	u
CCOc1ccc(C2c3cccn3-c3ccccc3CN2C(=O)Nc2ccc(OC)c(OC)c2)cc1 (centres undefined)	i
Cc1ccc(NC(=O)N2Cc3ccccc3-n3cccc3C2c2cccs2)c(C)c1 (centres undefined)	i
COc1ccccc1CN[C@H]1C2CCN(CC2)[C@H]1C(c1ccccc1)c1ccccc1	i
CC1(C)C(=O)N(c2ccc(C#N)c(C(F)(F)F)c2)C(=S)N1c1ccc(C(N)=O)c(F)c1	i
CCc1ccc(C2c3cccn3-c3ccccc3CN2C(=O)Nc2ccccc2CC)cc1 (centres undefined)	i
N#C[C@@H](O[C@@H]1O[C@H](CO[C@@H]2O[C@H](CO)[C@@H](O)[C@H](O)[C@H]2O)[C@@H](O)[C@H](O)[C@H]1O)c1ccccc1	i
COC(=O)CC1CC2(C(=O)c3c(O)cccc3C2(O)C(=O)OC)C(C)O1 (centres undefined)	i
CCOc1ccc(C2c3cccn3-c3ccccc3CN2C(=O)Nc2ccc(C)c(F)c2)cc1 (centres undefined)	i
Cc1cccc(NC(=O)N2Cc3ccccc3-n3cccc3C2c2ccccc2Cl)c1C (centres undefined)	i
CC(C)CCNC(=O)N1Cc2ccccc2-n2cccc2C1c1cccs1 (centres undefined)	i
Cn1nc(-c2ccc3ccccc3c2)cc1[C@H]1CN2CC[C@H]1C[C@@H]2CNC(=O)c1ccco1	i
COC(=O)C1(C)CCC(O)C2(C)c3c(O)cc(C(C)C)cc3C(O)C(OC(C)=O)C12 (centres undefined)	i
COc1cc(O)c2c(c1)CCC[C@@H](O)[C@H](O)C(=O)/C=C\C[C@H](C)OC2=O	i
CCCS(=O)(=O)Nc1ccc(=O)n2c1[C@@H]1C[C@@H](CN(C(=O)Nc3ccc(OC)cc3)C1)C2	i
O=C(Nc1cc(F)ccc1F)N1Cc2ccccc2-n2cccc2C1c1cccs1 (centres undefined)	i
CCOc1ccccc1NC(=O)N1Cc2ccccc2-n2cccc2C1c1ccccc1Cl (centres undefined)	i
CC1=CC(=O)[C@@H](O)[C@]2(C)C3[C@@H](O)[C@@H]4OC(=O)[C@@H]([C@H]4C)[C@]3(C)C(=O)C[C@@H]12 (some centres undefined)	i
COc1cccc(NC(=O)N2Cc3ccccc3-n3cccc3C2c2ccccc2Cl)c1 (centres undefined)	i
COCC1CN(C2CCC2)CC12CCN(Cc1ccncc1)CC2 (centres undefined)	i
(list continues)
SMILES	Methyltransferases
CC(C)c1ccc(C2c3cccn3-c3ccccc3CN2C(=O)Nc2ccc3c(c2)OCCO3)cc1 (centres undefined)	i
Cc1ccc(CNC(=O)N2Cc3ccccc3-n3cccc3C2c2cccc(C)c2)cc1 (centres undefined)	i
COc1ccc(C)cc1NC(=O)N1Cc2ccccc2-n2cccc2C1c1ccc(OC)c(OC)c1 (centres undefined)	i
CSc1ccc(C2c3cccn3-c3ccccc3CN2C(=O)Nc2ccccc2C(F)(F)F)cc1 (centres undefined)	i
Cc1cccc(NC(=O)N[C@@H]2N=C(c3ccccc3)c3ccccc3N(C)C2=O)c1	u
CC(O)(c1ccccc1)C(Cc1ccc(Cl)cc1)n1cncn1 (centres undefined)	i
Cc1ccc(-n2nccn2)c(C(=O)N2CCN(c3nc4cc(Cl)ccc4o3)CC[C@H]2C)c1	u
NC(=O)c1cc(N2CC2)c([N+](=O)[O-])cc1[N+](=O)[O-]	i
COc1ccc2c(c1)c(CCN(C)C)cn2S(=O)(=O)c1ccccc1	i
O=C(N[C@H]1CN2CCC1CC2)c1ccc(Cl)cc1	i
CC1=C[C@H]2O[C@@H]3C[C@H]4OC(=O)/C=C/C=C/C(=O)OCC/C(C)=C/C(=O)OC[C@@]2(CC1)[C@]4(C)[C@]31CO1	i
CCC1c2cccn2-c2ccccc2CN1C(=O)Nc1cc(C)ccc1OC (centres undefined)	i
CCC1c2cccn2-c2ccccc2CN1C(=O)NC1CCCC1 (centres undefined)	i
C/C=C1/CN2CC[C@]34C(=Nc5ccc(OC)cc53)C2C[C@@H]1C4(CO)C(=O)OC (some centres undefined)	i
CSc1ccc(C2c3cccn3-c3ccccc3CN2C(=O)Nc2ccc3c(c2)OCCO3)cc1 (centres undefined)	i
COc1cc(C)[nH]c(=O)c1CNC(=O)c1c(C)n([C@H](C)C2CCOCC2)c2ccccc12	u
C=C(C)[C@@]12O[C@@H]1[C@@]1(C)C(=CC2=O)CC[C@@H](OC(C)=O)[C@@H]1C	i
CC(C)=CCOc1c2occc2cc2ccc(=O)oc12	i
COc1cc(OC)c(NC(=O)N2Cc3ccccc3-n3cccc3C2c2ccccc2)cc1Cl (centres undefined)	i
CCC1NC(=O)C2C(Cl)C(Cl)CN2C(=O)C(CC)NC(=O)CC(c2ccccc2)NC(=O)C(CO)NC1=O (centres undefined)	i

Next section; it opens with the 5 that closed the last part.
SMILES	Methyltransferases
COc1cc(C)[nH]c(=O)c1CNC(=O)c1c(C)n([C@H](C)C2CCOCC2)c2ccccc12	u
C=C(C)[C@@]12O[C@@H]1[C@@]1(C)C(=CC2=O)CC[C@@H](OC(C)=O)[C@@H]1C	i
CC(C)=CCOc1c2occc2cc2ccc(=O)oc12	i
COc1cc(OC)c(NC(=O)N2Cc3ccccc3-n3cccc3C2c2ccccc2)cc1Cl (centres undefined)	i
CCC1NC(=O)C2C(Cl)C(Cl)CN2C(=O)C(CC)NC(=O)CC(c2ccccc2)NC(=O)C(CO)NC1=O (centres undefined)	i
N[C@@H](Cn1oc(=O)[nH]c1=O)C(=O)O	i
Cc1ccccc1-n1c(Cn2ncc3c(N)ncnc32)nc2cccc(C)c2c1=O	i
CC(C)C(=O)O[C@H]1[C@@H]2[C@H](C)C(=O)O[C@@H]2C[C@@H](C)[C@@H]2C=CC(=O)[C@]21C	i
COc1ccc(NC(=O)N2Cc3ccccc3-n3cccc3C2C(C)C)cc1OC (centres undefined)	i
COCCCNC(=O)N1Cc2ccccc2-n2cccc2C1c1ccccc1 (centres undefined)	i
Cc1ccc(NC(=O)N2Cc3ccccc3-n3cccc3C2c2ccccc2Cl)cc1 (centres undefined)	i
O=[S+]1([O-])NC2(CCN(Cc3cccnc3)C2)COc2ccncc21 (centres undefined)	i
COC(=O)CCNC(=O)N1Cc2ccccc2-n2cccc2C1c1ccc(N(C)C)cc1 (centres undefined)	i
C=C(CO)C(=O)O[C@H]1C/C(C)=C/CC/C(CO)=C/[C@H]2OC(=O)C(=C)[C@H]12	i
COc1ccc2[nH]cc(CCN)c2c1	i
CCCSc1ncc(CN2CC[C@H]3CNC[C@H]32)cn1	i
CCOc1ccc(C2c3cccn3-c3ccccc3CN2C(=O)Nc2cccc(OC)c2)cc1 (centres undefined)	i
COc1ccccc1-c1cc([C@H]2CN3CC[C@H]2C[C@@H]3CNC(=O)N2CCOCC2)n(C)n1	i
C=C1C(=O)O[C@@H]2[C@H]3C(=C)[C@@H](O)C[C@H]3C(=C)C[C@@H](O)[C@@H]12	i
COc1ccc2c3c4n(c2c1)[C@@H](C=C(C)C)OOC(C)(C)C[C@@H]4N1C(=O)[C@@H]2CCCN2C(=O)[C@]1(O)[C@H]3OCC=C(C)C	i
CC(C)c1ccc(C2c3cccn3-c3ccccc3CN2C(=O)Nc2ccc(F)cc2F)cc1 (centres undefined)	i
CCc1ccc(C2c3cccn3-c3ccccc3CN2C(=O)Nc2ccccc2C(F)(F)F)cc1 (centres undefined)	i
COC(=O)CCNC(=O)N1Cc2ccccc2-n2cccc2C1c1ccccc1Cl (centres undefined)	i
COc1cccc(CNC(=O)N2Cc3ccccc3-n3cccc3C2c2cccc(Cl)c2)c1 (centres undefined)	i
